Bioassay records as filed in PubChem BioAssay.
NS1 function inh = inhibitors of influenza NS1 protein function. Potency, µM (highest dose often 46.1 µM), for the others: at the highest dose activity, positive = more growth. AID 2326. actives 0.4% (n = 270,000). S. cerevisiae slowed by influenza A NS1, growth recovery by OD600; note: actives are rising curves; nearly all actives have a fitted effect of over 50% in size
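In this qHTS, NS1 from influenza A is expressed in budding yeast, where it slows growth. Cells are switched from glucose to 2% galactose medium (pH 6.0, -URA), treated with compound, and growth recovery is read at OD600.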
Marburg entry inh = blocks Marburg virus binding to or entry into cells | Marburg virus pseudotyped entry inhibition, cell reporter; control for the full effect not named in the record; about a third of the inactives were read at about 46 µM | Potency, µM (highest dose often 37.8 µM), inactives show top-dose activity change, negative = inhibition, most hits filed as inhibitors | actives 1.8% (n = 300,000) | AID 540276; active = well fitted inhibition curve with a large enough effect; inconclusive = small, poorly fitted or top-dose-only effect, or effect the other way; inactive = flat fitted curve, though single readings scatter; tested in HEK293 cells; about a fifth of its hits are not listed in these tables; note: % is set by controls: 0 for no effect and ±100 for the full control effect; luciferase read-out
Cruzain inh noDet = inhibitors of Trypanosoma cruzi cruzain without detergent. P25779. purified cruzain, Z-FR-AMC fluorescence, no detergent. Potency, µM, for inactives: max response, negative = inhibition, hits mostly inhibitors. actives 2.3% (n = 200,000). AID 1476; active = well fitted curve in the direction sought with a large enough effect; inconclusive = small, poorly fitted or top-dose-only effect, or another doubt; inactive = no such curve, though single readings can be large; an effect the other way counts as inactive or inconclusive;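 note: plate controls were enzyme without inhibitor for no effect and buffer without enzyme for full effect; nearly all actives have a fitted effect of over 40% in size; top concentration of the series not given in the record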
Target sequence (P25779 123-467 limits assumed): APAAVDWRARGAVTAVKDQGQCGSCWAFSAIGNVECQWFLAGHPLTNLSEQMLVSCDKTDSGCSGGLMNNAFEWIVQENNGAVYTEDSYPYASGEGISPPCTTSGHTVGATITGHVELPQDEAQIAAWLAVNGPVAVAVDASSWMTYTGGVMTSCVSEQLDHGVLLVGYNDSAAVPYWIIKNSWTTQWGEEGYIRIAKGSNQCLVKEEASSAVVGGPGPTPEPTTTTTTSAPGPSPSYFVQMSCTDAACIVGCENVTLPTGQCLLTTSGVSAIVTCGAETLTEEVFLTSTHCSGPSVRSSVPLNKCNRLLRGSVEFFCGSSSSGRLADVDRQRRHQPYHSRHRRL
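Detergent-free condition (0.00005% Triton X-100) in acetate buffer pH 5.5 with DTT. 1.5 nM enzyme and compound were pre-mixed 15 min, then 2 uM Z-FR-AMC substrate added; reaction progress from fluorescence change between first and third reads (60 s).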
Lassa entry inh = inhibitors of Lassa virus binding or cell entry | Lassa virus pseudotype entry inhibition, cell reporter; control for the full effect not named in the record | Potency, µM (titrated, usually from 37.9 µM), for inactives: at the highest dose activity change, negative = inhibition, actives largely listed as inhibitors | actives 1.2% (n = 300,000) | AID 540256; active means well fitted inhibition curve with a large enough effect; inconclusive means small, poorly fitted or top-dose-only effect, or effect the other way; inactive means flat fitted curve, though single readings scatter; tested in HEK293 cells; note: % is set by controls: 0 for no effect and ±100 for the full control effect; nearly all actives have a fitted effect of over 50% in size; luciferase read-out
Cruzain inh Det = blocks cruzain activity in presence of Triton detergent | P25779 | purified cruzain, Z-FR-AMC fluorescence, 0.01% Triton | Potency, µM, for inactives: max response, negative = inhibition, hits mostly inhibitors | actives 0.43% (n = 200,000) | AID 1478; active = well fitted curve in the direction sought with a large enough effect; inconclusive = small, poorly fitted or top-dose-only effect, or another doubt; inactive = no such curve, though single readings can be large; an effect the other way counts as inactive or inconclusive;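 note: plate controls were neutral wells for no effect and buffer without enzyme for full effect; nearly all actives have a fitted effect of over 40% in size; top concentration of the series not given in the record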
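Sodium acetate buffer (100 mM, pH 5.5) containing 5 mM DTT and 0.01% Triton X-100 hosted 1.5 nM cruzain and test compound for 15 min at room temperature. Cleavage of 2 uM Z-FR-AMC was then tracked by fluorescence.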
RE007 growth inh = less growth of the S. pombe RE007 Vpr strain; actives 0.21% (n = 360,000); Potency, µM (doses to about 92.2 µM), without a hit: at the top dose activity change, negative = less growth; S. pombe RE007 Vpr strain, BacTiter-Glo ATP luminescence, 24 h; control for the full effect not named in the record; active = well fitted falling curve with a large enough effect; inconclusive = small, poorly fitted or top-dose-only effect; inactive = no such curve, though single readings can be large or run the other way;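 note: % is set by controls: 0 for no effect and ±100 for the full control effect; nearly all actives have a fitted effect of over 50% in size; the assay follows cell death caused by Vpr and the record does not say whether a fall means rescue or toxicity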
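Fission yeast RE007 carrying one integrated HIV-1 vpr copy, seeded at OD 0.01 in PMG+AL medium with 23 nL pinned compound. Grown 24 h at 30 degrees; viability read by BacTiter-Glo luminescence after 5 min.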
SARS PLpro yeast = blocks SARS-CoV papain-like protease in a yeast assay; actives 0.19% (n = 330,000); Potency, µM (top dose mostly 32.9 µM), for the others: top-dose activity, positive = growth rescue; S. cerevisiae expressing SARS-CoV PLpro, growth rescue; control for the full effect not named in the record; note: 0% is about no effect; nearly all actives have a fitted effect of over 55% in size; growth read by luminescence after 48 h
2A StopGo = lowers the luciferase signal of an FMDV 2A StopGo reporter; human cells with a luciferase reporter of 2A StopGo recoding; control for the full effect not named in the record; Potency, µM (top dose mostly 57.9 µM), inactives show at the highest dose signal change, negative = less light; actives 1.2% (n = 410,000); AID 1159524; active = well fitted falling curve with a large enough effect; inconclusive = small, poorly fitted or top-dose-only effect; inactive = no such curve, though single readings can be large or run the other way; tested in HEK293T cells; note: % is set by controls: 0 for no effect and ±100 for the full control effect; nearly all actives have a fitted effect of over 45% in size; luciferase light after 4 h
An asterisk follows results filed as active; ? = inconclusive; · = not tested or not shown; & = joins results of further samples; [ ] = remark or other dose. Unless noted, calls come from the whole dose curve; as a rule, active means well fitted rising curve with a large enough effect; inconclusive means small, poorly fitted or top-dose-only effect; inactive means no such curve, though single readings can be large or run the other way. Potency is the fitted concentration of half-maximal effect.

Structure,NS1 function inh,Marburg entry inh,Cruzain inh noDet,Lassa entry inh,Cruzain inh Det,RE007 growth inh,SARS PLpro yeast,2A StopGo
CCCCN1C(=O)C(=O)NC[C@@H]1C(C)O (stereo not given in full),6%,·,·,·,·,8%,2%,2%
CCCCn1c(SCC(=O)N(C)C)nnc1-c1ccncc1,2%,?,·,22%,·,1%,1%,0%
Cc1cc(Cl)cc(Cl)c1CNc1c([N+](=O)[O-])c(=O)oc2ccccc12,-3%,-4%,?,21%,-8.0%,9%,-8%,?
CSc1nnc(N2C(=O)C(O)=C(C(=O)c3ccco3)C2c2ccccc2)s1 (stereo not given),7%,·,·,·,·,1%,-3%,0%
O=C(NC1CCN(Cc2ccccc2)CC1)c1ccccc1,7%,·,·,·,·,1%,-1%,-16%
COc1ccc(C(=O)NC(C)c2cc(OC)c(OC)cc2Br)cc1 (stereo not given),-20%,-26%,4%,?,1.2%,6%,2%,-14%
CC1Nc2ccccc2C(=O)N1NS(C)(=O)=O (stereo not given),·,-12%[46.1 µM],·,13%,·,-6%,-7%,0%
CCN1CCN(C(=O)CCc2nc3ccccc3n2-c2ccccc2)CC1,2%,-4%,14%,16%,3.6%,10%,15%,3%
COc1cccc(/C=C/C(=O)OCC(=O)Nc2cc(S(=O)(=O)N3CCOCC3)ccc2C)c1,·,-3%[46.1 µM],·,·,·,10%,-3%,-10%
Cc1cc(NC(=O)CCC(=O)N(Cc2ccco2)C(C(=O)NC2CCCC2)c2ccccc2C)no1 (stereo not given),17%,?,7%,5%,-4.1%,-2%,7%,-20%
Cc1cccc(NC(=O)CSc2ccc3nnc(-c4cccnc4)n3n2)c1,-2%,11%,·,11%,·,2%,-10%,-3%
O=S(=O)(c1ccc2nc(Nc3ccc(Br)cc3F)ccc2c1)N1CCCC1,·,·,7%,0%[46.1 µM],6.6%,·,·,2%
CC(C)n1nccc1N(Cc1ccc(C#N)cc1)S(=O)(=O)c1ccccc1,-51%,3%[46.1 µM],·,6%[46.1 µM],·,10%,-3%,-19%
Nc1nonc1-n1nnc(C(=O)N/N=C/c2cc(Br)ccc2O)c1CNc1ccccc1,8%,?,·,?,·,7%,?,-20%
COc1cccc(/C=N/n2nnc3c(cnn3-c3ccccc3)c2=O)c1,14%,-22%,2%,3%,1.5%,14%,-7%,?
COc1ccc(/C=N/NC(=O)c2nnn(-c3nonc3N)c2-c2cccs2)cc1OC,5%,-1%[46.1 µM],·,27%[46.1 µM],·,1%,1%,?
CCOC(=O)C1=C(N)Oc2c(oc(CO)cc2=O)C1c1ccc(Cl)cc1 (stereo not given),1%,2%[46.1 µM],·,11%[46.1 µM],·,-1%,0%,-6%
N#CCC1c2ccccc2CCN1C(=O)Nc1cccc(Cl)c1 (stereo not given),-12%,4%,-4%,0%,-1.9%,2%,2%,4%
COc1cc(N=Nc2ccc3ccccc3c2)ccc1O,-156%,·,·,·,·,?,-17%,63%[activator]
Cc1ccc(-c2nnn(CC(=O)Nc3ccccc3N3CCOCC3)n2)cc1,-8%,-28%,9%,-19%,-2.6%,13%,-24%,?
Cc1[nH]nc2c1C(c1ccoc1)C(C#N)=C(N)O2 (stereo not given),-7%,8%,-2%,?,3.1%,0%,2%,?
Cn1c(N/N=C/c2cccs2)cc(=O)n(C)c1=O,13%,-6%,-9%,14%,-2.1%,15%,1%,15%
CN(C)CCN(C(=O)C1CCN(S(=O)(=O)c2cccs2)CC1)c1nc2ccccc2s1,·,?,·,?,·,3%,-3%,-2%
O=C(NC1CCCN(Cc2ccc(Cl)cc2)C1)c1c(F)ccc(F)c1F (stereo not given),1%,?,·,-5%[46.1 µM],·,-12%,?,-11%
CS(=O)(=O)N1CCc2cc(C(=O)N3CCN(c4ccc(F)cc4)CC3)ccc21,3%,-13%&-13%[46.1 µM],?,-3%[46.1 µM],-0.9%,1%,3%,-8%&-26%
CCN1C(=O)C2C(C1=O)N1C(c3cccs3)C3C(=O)N(CC)C(=O)C3N1C2c1cccs1 (stereo not given),12%,0%,11%,-12%,6.1%,-6%,2%,-14%
CC(=O)c1ccc(NC(=O)CN2CCN(c3ncccn3)CC2)cc1,2%,-10%,-2%,1%,-1.0%,-1%,5%,-15%
CCN(CC)CCNC(=O)C1(O)c2cc(Br)ccc2NC(=O)N1c1cccc(OC)c1 (stereo not given),2%,·,·,·,·,4%,1%,-11%
Cc1ccc(NC(=O)C2CCCN2S(=O)(=O)c2ccc3c(c2)CCC(=O)N3)cc1Cl (stereo not given),-32%,-2%,-3%,·,2.5%,6%,6%,-25%
COc1cccc(-c2cc(C(F)(F)F)c3c(N)c(C#N)sc3n2)c1,-7%,1%,10%,·,0.6%,·,4%,·
CCOc1cc(C(=O)N2CCC(c3ccncc3)CC2)cc(OCC)c1OCC,·,·,10%,8%[46.1 µM],1.9%,·,·,0%
CCN1CCN(S(=O)(=O)c2ccc(Cl)c(C(=O)Nc3ccc(OC(F)F)cc3)c2)CC1,4%,11%,·,5%,·,14%,-5%,-7%
CCCNC(=O)c1ccccc1NC(=O)c1ccccc1N(C)S(=O)(=O)c1ccccc1,-4%,-11%,9%,-29%,-3.6%,-12%,11%,12%
COc1ccc(OCCSc2nnc(-c3cccnc3)n2N)cc1,6%,10%,-16%,3%,-1.5%,-17%,5%,1%
COc1cccc(NC(=O)Nc2ccc3c(c2)N(C)C(=O)CS3)c1,-4%,8%,-21%,7%,-4.5%,-5%,-9%,?
Cc1cccc(-n2c(-c3cccs3)nc3ccccc3c2=O)c1,1%,-1%,-8%,6%,-16%,-6%,?,-27%
CC(=O)NC(CC(=O)Nc1cccc(S(=O)(=O)N2CCCCC2)c1)c1ccccc1 (stereo not given),2%,-2%,-3%,-7%,1.0%,-10%,3%,10%
CCn1nc(C(=O)NCc2nnc3ccccn23)c2ccccc2c1=O,·,10%,·,3%,·,-10%,-7%,-15%
CC(=O)c1c(C)n(C)c2ccc(O)cc12,4%,-1%,3%,16%,0.9%,7%,-6%,-8%
COc1ccc(CN2CCCN(CC(=O)Nc3ccc(Br)cc3F)S2(=O)=O)cc1,·,·,-1%,-20%[46.1 µM],-5.8%,·,·,-18%
Cc1cccc(N2CCc3c2nc2ccccc2c3N)c1,-23%&-21%,?,?,-3%,-6.8%&-9.1%,-11%&-4%,2%&-3%,-18%&7%
CCc1nnc(NC(=O)C2CCCO2)s1 (stereo not given),2%,?,·,29%[46.1 µM],·,12%,1%,4%
COc1ccc(-n2nc(C(=O)NCCCN3CCOCC3)c3ccccc3c2=O)c(OC)c1,-6%,?,·,4%[46.1 µM],·,-3%,-14%,-5%
CCCCC1=CC2=C(c3ccco3)C(=O)C(C)(OC(=O)c3ccc(OC)cc3)C(=O)C2=CN1CCCOC(C)C (stereo not given),?,-7%&-7%[14.2 µM],·,·,·,-5%,-2%,?
COc1ccccc1/C=C1\SC(=S)N(CCC(=O)Nc2cccc(O)c2)C1=O,-2%,·,·,·,·,-8%,-1%,-13%
COc1cccc(/C=N/NC(=O)CC(=O)NCCc2ccc(OC)c(OC)c2)c1,4%,3%,9%,-14%,-1.6%,10%,?,·
CC(=O)N1c2c(cc(Br)cc2S(=O)(=O)Nc2ccc(OC(F)(F)F)cc2)CC1C (stereo not given),·,-23%[46.1 µM],12%,4%[46.1 µM],-8.7%,·,·,25%
O=C(CSc1ccccc1Cl)NC1CCCc2ccccc21 (stereo not given),0%,?,6%,0%,-12%,6%,9%,5%
CCc1ccc(NC(=S)N2CCC(NC(=O)c3ccccc3)CC2)cc1,1%,1%[46.1 µM],·,1%,·,-4%,1%,0%
CN(C(=O)CSc1nc(C2CC2)nc2ccccc12)c1nc(-c2ccccc2)cs1,6%,?,3.2µM*,12%,1.0%,19%,-3%,4%
COc1cccc(NS(=O)(=O)c2ccc3c(c2)CCCN3C(C)=O)c1,-6%,-14%,10%,-16%,8.2%,5%,4%,·
O=C(NCCN1CCN(c2ccccc2)CC1)C1(S(=O)(=O)c2ccc(Cl)cc2)CC1,-6%,·,-1%,·,2.7%,-4%,10%,-24%
CC(C)Nc1nnc(SCC(=O)N2CCN(C(=O)c3ccco3)CC2)s1,·,35%,·,-3%,·,-17%,-1%,-1%
Nc1c2c(nn1-c1ccccc1)CCC2,8%,-8%[46.1 µM],·,7%[46.1 µM],·,-18%,1%,6%
CCOC(=O)c1c(NC(=O)CSc2nnc(-c3cccnc3)o2)sc2c1CCC2,8%,14%[46.1 µM],?,4%,-5.2%,19%,0%,-5%
CCOc1ccc(NC2OC(C)C(O)C(O)C2O)c([N+](=O)[O-])c1 (stereo not given),3%,-6%[46.1 µM],·,17%,·,0%,0%,-5%
C/C(=N\NC(=O)c1ccncc1)c1ccc(N(C)C)cc1,·,?,·,6%,·,-2%,-5%,20%
O=C1NC(=Nc2ccccc2)c2ccc([N+](=O)[O-])cc21,9%,-2%,-13%,-12%,-0.4%,-2%,-17%,-20%
C/C(=N\NC(=O)c1cc2ccccc2cc1O)c1cccs1,18%,?,·,?,·,-16%,-4%,-52%
CCc1ccc2c(c1)C(C)=CC(C)(C)N2,17%,9%,5%,8%,-7.9%,-5%,23%,-21%
COCCn1c(C)cc(C(=O)CN2C(=O)NC3(CCCCCC3)C2=O)c1C,·,14%,·,-15%,·,23%,1%,19%
COc1ccc(OCC(=O)Nc2ccc3c(c2)nc(CCNC(=O)c2ccco2)n3C)cc1,·,-23%[46.1 µM],-2%,20%[46.1 µM],-5.5%,·,·,-25%
CCOc1cc(-c2nnc(SCC(=O)NC3CCCCC3)nc2-c2ccc(OC)c(OCC)c2)ccc1OC,·,·,-17%,6%[46.1 µM],0.9%,·,·,-10%
